YopH PTP inh = inhibitors of Yersinia enterocolitica YopH tyrosine phosphatase | 0.16% of 140,000 active | inhibition, %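 (about 10 µM by stock and volumes)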 | fluorescence Ex485/Em525;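 active = inhibition of 50% or more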;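 note: controls were vehicle for no effect and minimum signal wells for full effect; inactives centre near -20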
Mtb H37Rv = M. tuberculosis H37Rv growth inhibitors, H37Rv strain (AID 1626). M. tuberculosis H37Rv growth inhibition; higher % means a stronger effect. 0.95% of 220,000 active. one-dose inhibition, % at 10 µM; IC50 in µM for titrated hits;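 active = confirmed in a dose series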;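 note: bacteria incubated seven days before Alamar blue readout; 0% = bacteria only wells and 100% = bacteria with antibiotic wells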
RecA splice inh = inhibitors of M. tuberculosis RecA intein splicing; cell-free RecA intein splicing, fluorescence; inhibition, %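 (about 9 µM by stock and volumes)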; 0.75% of 290,000 active; in the data active = inhibition above about 30%;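 note: 0% = vehicle wells and 100% = reference inhibitor control wells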
Target sequence (P9WHJ3 whole entry, looked up, canonical isoform): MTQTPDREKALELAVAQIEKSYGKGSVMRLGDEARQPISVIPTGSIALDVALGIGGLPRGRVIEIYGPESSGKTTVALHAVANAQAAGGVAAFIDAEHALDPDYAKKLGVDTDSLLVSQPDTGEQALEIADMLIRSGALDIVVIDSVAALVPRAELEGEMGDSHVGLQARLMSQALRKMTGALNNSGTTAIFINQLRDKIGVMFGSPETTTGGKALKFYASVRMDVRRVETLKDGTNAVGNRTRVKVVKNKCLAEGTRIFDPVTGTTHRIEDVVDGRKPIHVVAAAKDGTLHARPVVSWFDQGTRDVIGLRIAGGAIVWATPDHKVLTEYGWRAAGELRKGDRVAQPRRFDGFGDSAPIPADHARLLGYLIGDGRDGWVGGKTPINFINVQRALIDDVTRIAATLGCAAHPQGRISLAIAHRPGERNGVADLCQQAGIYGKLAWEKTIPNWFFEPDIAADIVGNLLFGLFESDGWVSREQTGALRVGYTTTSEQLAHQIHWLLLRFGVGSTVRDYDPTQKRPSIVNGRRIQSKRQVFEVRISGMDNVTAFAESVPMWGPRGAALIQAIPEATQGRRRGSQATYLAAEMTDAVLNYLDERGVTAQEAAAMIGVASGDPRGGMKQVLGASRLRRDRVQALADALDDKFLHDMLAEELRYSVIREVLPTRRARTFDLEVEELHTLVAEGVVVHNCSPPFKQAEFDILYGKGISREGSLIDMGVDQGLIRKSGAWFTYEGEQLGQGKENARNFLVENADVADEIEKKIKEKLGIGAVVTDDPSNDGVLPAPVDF
Arbovirus anti = blocks arbovirus infection. arbovirus infection cell-based antiviral screen. inhibition, % at 10 µM. 0.37% of 200,000 active. AID 1251;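 active = inhibition from about 30%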;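 note: bluetongue infection of BSR cells; cell survival read as ATP light after 72 h; 0% = infected wells without compound and 100% = uninfected wells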
Mtb bLac sens = beta-lactam sensitization of Mtb H37Rv | M. tuberculosis H37Rv growth with meropenem, percent inhibition; hits of this screen are not shown here | inhibition, % at 25 µM | 0.27% of 330,000 active | AID 434955;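 active = about 74% or more and at least 40 points above the plate without the antibiotic, then above 30% in a dose series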;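 note: growth measured after seven days incubation then overnight dye step; 0% = bacteria only wells and 100% = bacteria with antibiotic; twin plates without the antibiotic show which effects depend on it; some results filed as inactive read as strong as hits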
Arbovirus anti repeat = recorded beside Arbovirus anti, whose call it bears; inhibition, %; measured here: 10K subset replicate screen; many hits read low in the repeat;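 first of two repeat runs on a subset; 0% = infected and 100% = uninfected wells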
Starred values were filed as active, the others as inactive; x = no result given. Only part of the results is shown; the hit share may differ from the screen's.

SMILES	YopH PTP inh	Mtb H37Rv	RecA splice inh	Arbovirus anti	Mtb bLac sens	others
Nc1ncc(-c2nnnn2-c2ccc(Cl)cc2)c(-c2ccc(Cl)cc2)n1	-17	-9%	-0.4	-11	-8
N#Cc1cc(-c2ccccc2)cnc1Cl	-22	-8%	-4.7	0	-4
FC(F)(F)c1ccc2c(c1)nc1n2CCCC1	-46	-5%	2.2	0	1
COc1ccccc1CN1C2CCCC1CC(NC(=O)/C=C/c1ccccc1)C2 (configuration not stated)	x	1%	-5.2	-15	-5
O=C(Nc1cccc(O)c1)N1CCOCC1	-18	-12%	-3.6	9	-6
Cc1ccc(C)c(S(=O)(=O)Nc2nc(C)c(C(=O)Nc3ccccc3)s2)c1	-15	-2%	3.9	-10	0
C=CCNC(=O)C1=NOC(CNC(=O)c2c(-c3ccccc3Cl)noc2C)C1 (configuration not stated)	-19	-9%	0.4	2	2
O=C1c2ccccc2S(=O)(=O)N1CC(O)Cn1c2ccccc2c2ccccc21 (configuration not stated)	-13	-3%	5.1	14	0	Arbovirus anti repeat=16
Cc1nc2c(ccc3c([N+](=O)[O-])cccc32)c(C)c1C	x	3%	1.6	-14	2
CCOC(=O)c1cc2cc3ccccc3cc2oc1=O	x	x	-3.4	x	95
COc1ccccc1C(=O)Nc1c2c(nn1-c1ccc([N+](=O)[O-])cc1)CS(=O)(=O)C2	x	x	-1.6	x	7
CCCCNC(=O)N(O)C1N(/N=C/c2cccs2)C(=S)SC1(C)C (configuration not stated)	x	-5%	-15	x	-2
COc1cccc(NC(=O)CN(C)C(=O)c2cccnc2Sc2ccc(C)c(C)c2)c1	x	x	3.0	x	6
CC12COC3(C(=O)Nc4ccccc4)CC1CCC32C (configuration not stated)	x	-5%	x	0	-2
CC1CCCN(C(=O)CN2C3CCC2CC(O)(c2ccc(F)cc2)C3)C1 (configuration not stated)	x	-6%	1.7	9	-2
O=C(Nc1ccccc1)Nc1nnc(-c2ccccc2)s1	x	-11%	5.2	x	1
O=C(c1ccc(COc2c(F)c(F)c(F)c(F)c2F)o1)N1CCOCC1	-16	-6%	0.4	5	-6
NS(=O)(=O)c1ccc(NC(=O)COC(=O)c2ccc3c(c2)OCCO3)cc1	x	0%	0.3	10	5
CC(=O)c1cccc(CN2CCCC(C(=O)Nc3ccc(-c4ccco4)cc3)C2)c1 (configuration not stated)	x	x	3.1	x	64
CCn1c2ccccc2c2cc(N=C3SC(CC(=O)Nc4ccccc4OC)C(=O)N3C)ccc21 (configuration not stated)	-31	1%	1.7	-2	4
CCOc1cc(CNn2cnnc2)cc(Br)c1OCC(=O)NC1CCCCC1	14	-10%	-3.7	-4	-6
Cc1c(NC(=O)C(C)OC(=O)c2c3c(nc4ccccc24)CCC3)c(=O)n(-c2ccccc2)n1C (configuration not stated)	-13	5%	-4.8	12	10
O=C(O)CCCNC(=O)c1ccccn1	-27	-5%	1.6	5	6
N#Cc1cc2c(nc1SCc1ccc(Cl)nc1)CCCCC2	x	1%	15	x	-7
CCOC(=O)c1nc(Nc2ccc(OC)cc2)c2ccccc2n1	x	x	1.5	x	5

Structures from the list above containing two or more sulfur atoms (2):
SMILES	YopH PTP inh	Mtb H37Rv	RecA splice inh	Arbovirus anti	Mtb bLac sens	others
Cc1ccc(C)c(S(=O)(=O)Nc2nc(C)c(C(=O)Nc3ccccc3)s2)c1	-15	-2%	3.9	-10	0
CCCCNC(=O)N(O)C1N(/N=C/c2cccs2)C(=S)SC1(C)C (configuration not stated)	x	-5%	-15	x	-2

Next entries.
SMILES	YopH PTP inh	Mtb H37Rv	RecA splice inh	Arbovirus anti	Mtb bLac sens	others
O=S(=O)(NC1CCCCC1NS(=O)(=O)c1ccc(F)cc1)c1ccc(F)cc1 (configuration not stated)	-10	-8%	-0.4	3	-11
N#Cc1ccc(COc2ccc(CCO)cc2-n2nc3ccccc3n2)cc1	-16	-8%	0.0	-10	2
CC[C@@H](NS(=O)(=O)c1ccc(C)cc1)C(=O)Oc1ccc2c3c(c(=O)oc2c1)CCC3	2	6%	28	-3	75
CCOC(=O)C1(C(C)(C)CC)CC(CSc2nc3ccccc3[nH]2)OC1=O (configuration not stated)	-32	-13%	6.1	20	-5
N#Cc1c(N)n(-c2ccc(O)cc2)c2nc3ccccc3nc12	x	-7%	0.0	3	-7
CC(C)(C)C(=O)Nc1ccc(C(=O)Nc2cc(NC(=O)c3ccc(NC(=O)C(C)(C)C)cc3)cc(C(=O)O)c2)cc1	x	x	-1.4	x	0
COCCN(Cc1cc2cc(C)ccc2n2nnnc12)C(=S)Nc1ccc(C)cc1	x	3%	0.9	5	1
O=C(CCC(=O)N1CCN(c2ccccc2F)CC1)c1ccc(F)cc1	x	-2%	2.4	x	-5
O=C(C1=C[C@@H](c2ccc(C(F)(F)F)cc2)C[C@@H](OCCCCO)O1)N1CCOCC1	x	x	-1.0	2	-13
C#CCOCCOCCOCCNc1nc(N2CCN(C(=O)C([C@@H](C)CC)n3cc(C(N)CC(C)C)nn3)CC2)nc(N2CCN(C(=O)[C@H](CCC(=O)O)n3cc(C(N)CC(C)C)nn3)CC2)n1 (some centres not stated)	x	11%	-2.2	-2	-7
O=c1cnnc(Nc2ccccc2F)[nH]1	x	-9%	-1.9	-3	0
Cc1ccc(-n2nnnc2SC(C)C(=O)Nc2ccc(Cl)cn2)cc1 (configuration not stated)	-15	16µM*	-2.3	-15	8
O=C(NCc1ccco1)c1sc2cc(Cl)ccc2c1Cl	-9	0%	1.7	-1	0
O=S(=O)(NCCCc1ccccc1)c1ccc(F)c(F)c1	x	x	1.9	x	-1
CCN(CC)c1ccc(C2C(C(=O)OC(C)C)C(=O)CC(C)(O)C2C(=O)OC(C)C)cc1 (configuration not stated)	-13	-10%	2.6	5	2
COCCN(C(=S)Nc1cccc(OC)c1)C(C)c1cccs1 (configuration not stated)	15	-1%	7.5	5	-1
O=C(CSc1nnc(-c2cccs2)n1-c1ccccc1)NCC1CCCO1 (configuration not stated)	15	-8%	-5.2	2	-5
O=C(NCc1cccs1)c1ccc(N2CCCC2=O)cc1	-12	10%	1.5	-2	-8
Cc1noc(C)c1S(=O)(=O)N1CCC(C(=O)N2CCN(c3ccc(F)cc3)CC2)CC1	-21	7%	1.2	-3	4
Cc1ccc(NC(=O)c2cc(-c3cc(C)c(C)cc3O)n[nH]2)cc1C	x	x	0.3	x	-6
CCOc1ccc(Cl)cc1CNCCCSc1ncccn1	x	x	1.4	x	-11
Cc1ccccc1OCC(=O)Nc1ccc2c(c1)OCO2	-42	x	-1.7	-8	16
COc1cccc(N2CCN(C(=O)c3ccc(CS(=O)Cc4ccc(C)cc4)o3)CC2)c1 (configuration not stated)	x	x	1.2	x	3
COc1ccc(-c2nn(C)c3sc(C(=O)NCc4ccco4)cc23)cc1OC	-38	-4%	3.3	9	21
O=[N+]([O-])c1ccc(O)c(/C=N/NC2=NS(=O)(=O)c3ccccc32)c1	x	7%	0.6	26	65

Further compounds.
SMILES	YopH PTP inh	Mtb H37Rv	RecA splice inh	Arbovirus anti	Mtb bLac sens	others
CN(C)CCN(C(=O)c1ccccc1Cl)c1nc2c(Cl)cccc2s1	-30	-6%	7.7	1	-2
COC(=O)c1cc(C#N)c(N2CC(C)OC(C)C2)nc1C (configuration not stated)	x	0%	-0.2	7	6
FC(F)(F)c1nc(NCC2CCCO2)c2nnn(Cc3ccccc3Cl)c2n1 (configuration not stated)	x	7%	x	14	-9
CCN1CCCC1CNC(=O)c1cc2cc(OC)c(OC)cc2[nH]1 (configuration not stated)	x	x	0.0	x	1
CCOc1ccc(NC(=O)c2ccc(N3CC4CC(C3)c3cccc(=O)n3C4)c(NC(=O)c3cccnc3)c2)cc1 (configuration not stated)	x	x	-0.8	x	7
O=C(c1ccc(Cl)cc1)N1CCCC(C(=O)N2CCN(c3ccccc3)CC2)C1 (configuration not stated)	x	-8%	-1.4	x	-2
O=C(CN1CCCCC1)Nc1ccc(Br)cc1[N+](=O)[O-]	x	4%	-0.9	-2	-8
COc1ccc(C(c2c(O)ccc3ccccc23)N2CCOCC2)c(OC)c1 (configuration not stated)	-47	x	1.7	-44	100
O=C(NCCN1CCOCC1)c1cc2sccc2n1Cc1ccc(F)cc1	-19	6%	0.3	3	1
CCOc1ccccc1N(CC)C(=O)c1ccc2c(=O)n3c(nc2c1)CCCCC3	x	x	-0.5	x	3
COc1ccc(/C=C/C(=O)Nc2ccncc2)cc1OC	x	-7%	0.4	-5	-7
O=C(NCCOc1cccc(Cl)c1Cl)c1cc(-n2cnnc2)ccc1Cl	-36	-5%	3.8	2	-1
CCOC(=O)CNC(=O)CSc1nccn1Cc1ccco1	x	1%	-1.3	1	-8
COc1ccc(-n2c(SCC(=O)NCC3CCCO3)nc3c(c2=O)SC(C)C3)cc1 (configuration not stated)	x	x	-2.4	x	15
COC(=O)c1[nH]c2c(c1C)C(=O)CC(c1ccccc1)C2 (configuration not stated)	-6	-2%	0.8	-6	-2
CCOc1cc(CNC(C)C(O)c2ccccc2)cc(Cl)c1OCC (configuration not stated)	-18	12%	-6.4	-5	1
Cc1ccc(C)c(OCC(=O)N/N=C/c2c(C)nn(-c3ccccc3)c2Cl)c1	6	x	4.0	-12	23
O=C(O)c1cccc(N2C(=O)CSC2=S)c1	x	x	-0.9	x	3
COc1ccc(NC(=O)Nc2ccccc2SC)cc1OC	x	-3%	-1.0	-5	-3
CC1(C)CC(=O)C(C(=S)Nc2ccccc2)=C(NCCN2CCOCC2)C1	-41	-7%	-0.9	7	4
Oc1c(C(c2ccco2)N2CCN(C(c3ccccc3)c3ccccc3)CC2)sc2ncnn12 (configuration not stated)	-39	12%	23	-20	1
CN=c1scc(-c2ccc(OC)cc2)n1/N=C(\C)c1cccnc1	x	6%	12	5	92

Structures above with an aryl methoxy group (14):
SMILES	YopH PTP inh	Mtb H37Rv	RecA splice inh	Arbovirus anti	Mtb bLac sens	others
COc1ccccc1CN1C2CCCC1CC(NC(=O)/C=C/c1ccccc1)C2 (configuration not stated)	x	1%	-5.2	-15	-5
COc1ccccc1C(=O)Nc1c2c(nn1-c1ccc([N+](=O)[O-])cc1)CS(=O)(=O)C2	x	x	-1.6	x	7
COc1cccc(NC(=O)CN(C)C(=O)c2cccnc2Sc2ccc(C)c(C)c2)c1	x	x	3.0	x	6
CCn1c2ccccc2c2cc(N=C3SC(CC(=O)Nc4ccccc4OC)C(=O)N3C)ccc21 (configuration not stated)	-31	1%	1.7	-2	4
CCOC(=O)c1nc(Nc2ccc(OC)cc2)c2ccccc2n1	x	x	1.5	x	5
COCCN(C(=S)Nc1cccc(OC)c1)C(C)c1cccs1 (configuration not stated)	15	-1%	7.5	5	-1
COc1cccc(N2CCN(C(=O)c3ccc(CS(=O)Cc4ccc(C)cc4)o3)CC2)c1 (configuration not stated)	x	x	1.2	x	3
COc1ccc(-c2nn(C)c3sc(C(=O)NCc4ccco4)cc23)cc1OC	-38	-4%	3.3	9	21
CCN1CCCC1CNC(=O)c1cc2cc(OC)c(OC)cc2[nH]1 (configuration not stated)	x	x	0.0	x	1
COc1ccc(C(c2c(O)ccc3ccccc23)N2CCOCC2)c(OC)c1 (configuration not stated)	-47	x	1.7	-44	100
COc1ccc(/C=C/C(=O)Nc2ccncc2)cc1OC	x	-7%	0.4	-5	-7
COc1ccc(-n2c(SCC(=O)NCC3CCCO3)nc3c(c2=O)SC(C)C3)cc1 (configuration not stated)	x	x	-2.4	x	15
COc1ccc(NC(=O)Nc2ccccc2SC)cc1OC	x	-3%	-1.0	-5	-3
CN=c1scc(-c2ccc(OC)cc2)n1/N=C(\C)c1cccnc1	x	6%	12	5	92

An excerpt from further up:
SMILES	YopH PTP inh	Mtb H37Rv	RecA splice inh	Arbovirus anti	Mtb bLac sens	others
Oc1c(C(c2ccco2)N2CCN(C(c3ccccc3)c3ccccc3)CC2)sc2ncnn12 (configuration not stated)	-39	12%	23	-20	1
CN=c1scc(-c2ccc(OC)cc2)n1/N=C(\C)c1cccnc1	x	6%	12	5	92

Assay outcomes: PubChem, several laboratories
